Screening results deposited in PubChem by Broad Institute.
Ecoli rRNA inh – inhibits bacterial ribosomal RNA function over humanized ribosomes; E. coli WT GFP vs humanized-ribosome RFP mutants, fluorescence, 24 h; stronger effect = lower value; DMSO median 0, no signal -100; GFP signal change (wild-type ribosome), % (concentration not given with the values); 350,000 compounds, 1.6% hits;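 active means significant combined selectivity score with lowered wild-type GFP, culture density cut under 30%, mutant RFP and density less affected; inactive means any of these conditions unmet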; further: one replicate is shown; some compounds called inactive have numbers as strong as hits
Ecoli rRNA inh OD600 – second read-out of Ecoli rRNA inh, no call of its own (marks repeat the call); OD600 change, %; measured here: OD600 growth;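 optical density of the mix in the first replicate; 0 = DMSO median and -100 = no signal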
Ecoli rRNA inh RFP – second read-out of Ecoli rRNA inh, no call of its own (marks repeat the call); RFP signal change, %; measured here: RFP humanized mutant strains;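 first replicate; 0 = DMSO median and -100 = no signal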
* marks the source's active call; other numbers are inactive results; & = joins results of further samples. Only part of the results is shown; count on the stated rates, not on these rows.

Below each compound: Ecoli rRNA inh, Ecoli rRNA inh OD600, Ecoli rRNA inh RFP
> C[C@@H]1CCCCO[C@H](CN(C)Cc2ccccc2)[C@@H](C)CN([C@H](C)CO)C(=O)c2cc(NC(=O)Nc3ccc(C(F)(F)F)cc3)ccc2O1
    -1.4, -13.1, 2.8
> C[C@@H]1CN([C@@H](C)CO)C(=O)c2cc(NC(=O)C3CCCCC3)ccc2O[C@@H]1CN(C)Cc1ccc2c(c1)OCO2
    -0.5, -1.4, -0.7
> COc1ccc(-c2ccc(C3[C@H]4CNC[C@@H]3N4C(=O)Nc3ccccc3F)cc2)cc1 (stereo partly specified)
    -6.8&2.1, -10.0&2.8, 1.5&0.9
> Cc1ccc(S(=O)(=O)N(C)C[C@@H]2OCCCC[C@@H](C)Oc3ccc(NS(=O)(=O)c4c(C)noc4C)cc3C(=O)N([C@@H](C)CO)C[C@@H]2C)cc1
    2.5, 4.2, -2.6
> C[C@@H](NC(=O)C[C@H]1C[C@H]2c3cc(NC(=O)C4CCOCC4)ccc3O[C@H]2[C@H](CO)O1)c1ccccc1
    -1.1, -2.8, -0.2
> CO[C@@H]1CN(C)C(=O)c2ccc(NC(=O)NC(C)C)cc2OC[C@@H](C)NC[C@@H]1C
    -0.3, -0.8, -0.7
> C[C@@H]1CN([C@H](C)CO)C(=O)c2cc(NS(C)(=O)=O)ccc2O[C@@H](C)CCCCO[C@H]1CN(C)C(=O)Nc1ccc(C(F)(F)F)cc1
    -9.0, -16.0, 2.5
> C[C@@H]1CN([C@H](C)CO)C(=O)Cc2cc(NC(=O)C3CCCCC3)ccc2O[C@@H]1CN(C)C(=O)Nc1ccc(C(F)(F)F)cc1
    -8.1, 1.5, 0.0
> OCC[C@@H]1C[C@H](O)[C@@H](O)[C@@]2(OCc3cc(C(F)(F)F)ccc32)O1
    -2.6, -1.2, -6.3
> CNC(=O)C[C@H]1CC[C@H]2[C@H](COc3ccc(NS(=O)(=O)c4ccc(F)cc4)cc3C(=O)N2C)O1
    2.3, -1.4, -3.4

Profiles from above.
OCC[C@@H]1C[C@H](O)[C@@H](O)[C@@]2(OCc3cc(C(F)(F)F)ccc32)O1 reads Ecoli rRNA inh: -2.6; Ecoli rRNA inh OD600: -1.2; Ecoli rRNA inh RFP: -6.3
CNC(=O)C[C@H]1CC[C@H]2[C@H](COc3ccc(NS(=O)(=O)c4ccc(F)cc4)cc3C(=O)N2C)O1 reads Ecoli rRNA inh: 2.3; Ecoli rRNA inh OD600: -1.4; Ecoli rRNA inh RFP: -3.4
COc1ccc(-c2ccc(C3[C@H]4CNC[C@@H]3N4C(=O)Nc3ccccc3F)cc2)cc1 (stereo partly specified) reads Ecoli rRNA inh: -6.8&2.1; Ecoli rRNA inh OD600: -10.0&2.8; Ecoli rRNA inh RFP: 1.5&0.9

Continued:
Below each compound: Ecoli rRNA inh, Ecoli rRNA inh OD600, Ecoli rRNA inh RFP
> COCC(=O)Nc1ccc2c(c1)C(=O)N(C)C[C@H](OC)[C@@H](C)CN(C(=O)C1CCCC1)[C@H](C)CO2
    0.0, 1.0, -1.0
> O=C1CCCN1c1ccc([N+](=O)[O-])cc1
    -4.0*, 0.9*, 2.8*
> CO[C@H]1CN(C)C(=O)c2cc(NC(=O)c3ccc(Oc4ccccc4)cc3)ccc2OC[C@@H](C)NC[C@H]1C
    -0.8, 4.8, 7.8
> COc1ccc(-c2ccc3n(c2=O)C[C@@H]2[C@@H](CO)[C@H](C(=O)NCC4CC4)[C@H]3N2S(C)(=O)=O)cc1
    0.6, 1.7, -2.1
> CN(C)C(=O)C[C@@H]1CC[C@@H](NC(=O)C2CC2)[C@@H](CO)O1
    2.0, 1.2, -1.9
> O=C(Oc1ccc[nH]c1=O)C1CC1
    10.4, 17.3, -4.3
> COc1ccc(-c2coc3c(C(=O)N4CCN(C)CC4)cccc23)c(C)c1
    -8.0, -11.7, 6.2
> C[C@H](CO)N1C[C@H](C)[C@@H](CN(C)S(C)(=O)=O)Oc2ccc(NC(=O)CCN3CCOCC3)cc2CC1=O
    4.0, 5.8, 0.2
> Cc1noc(C)c1NC(=O)Nc1ccc2c(c1)CC(=O)N([C@H](C)CO)C[C@H](C)[C@H](CN(C)S(C)(=O)=O)O2
    2.9, 7.7, -2.6
> CN1C(=O)c2cc(NC(=O)c3ccccc3)ccc2OC[C@@H]2O[C@H](CC(=O)NCC3CC3)CC[C@H]21
    -1.5, -5.5, -0.5

Another view of some results above.
Ecoli rRNA inh | Ecoli rRNA inh OD600 | Ecoli rRNA inh RFP | Molecule
4.0 | 5.8 | 0.2 | C[C@H](CO)N1C[C@H](C)[C@@H](CN(C)S(C)(=O)=O)Oc2ccc(NC(=O)CCN3CCOCC3)cc2CC1=O
0.6 | 1.7 | -2.1 | COc1ccc(-c2ccc3n(c2=O)C[C@@H]2[C@@H](CO)[C@H](C(=O)NCC4CC4)[C@H]3N2S(C)(=O)=O)cc1

Additional records.
Below each compound: Ecoli rRNA inh, Ecoli rRNA inh OD600, Ecoli rRNA inh RFP
> CC(C)CNC(=O)C1C(=O)Nc2ccccc2C(=O)N1C1CCCCC1 (stereo unspecified)
    4.6, 6.8, 1.0
> CC=Cc1ccc2n(c1=O)C[C@H]1[C@H](CO)[C@@H](C(=O)N[C@@H](C)c3ccccc3)[C@@H]2N1CC (mixture of isomers)
    -0.6, 5.3, -0.3
> CC(C)C[C@H]1COCc2cn(nn2)CC[C@H](C)C(=O)N1
    1.7, 6.5, -1.8
> O=S(=O)(Nc1ccccc1N1CCCC1)c1ccccc1C(F)(F)F
    -6.0, -6.9, 5.3
> C[C@@H]1CN([C@H](C)CO)C(=O)c2cc(NC(=O)Cc3ccccc3)ccc2O[C@@H](C)CCCCO[C@H]1CN(C)S(=O)(=O)c1cn(C)cn1
    0.9, 5.3, 1.3
> CCC(=O)Nc1ccc2c(c1)C(=O)N(C)C[C@@H](OC)[C@@H](C)CN(C(=O)CC1CC1)[C@H](C)CO2
    1.9, 0.6, -1.5
> C[C@H]1CN([C@@H](C)CO)C(=O)CCCn2cc(nn2)CO[C@H]1CN(C)C(=O)Nc1ccccc1C(F)(F)F
    -0.6, 6.9, 1.1
> CCOC(=O)C1(C)CCCN(C(=O)c2cc(OC)c(OC)c(OC)c2)C1 (stereo unspecified)
    3.5, 2.4, 1.9
> O=C(C[C@@H]1C=C[C@H](NC(=O)c2cccc(F)c2)[C@@H](CO)O1)NCc1ccc(Oc2ccccc2)cc1
    5.5, 10.9, -1.0
> CCCNC(=O)N(C)C[C@H]1Oc2cc(-c3ccncc3)ccc2S(=O)(=O)N([C@@H](C)CO)C[C@H]1C
    -1.2, -3.7, 0.3
> NC(c1ccc(F)c(F)c1)c1nc(-c2cc(F)cc(F)c2)cs1 (stereo unspecified)
    -55.4, -82.0, -15.9
> CC(=O)Nc1cc(-c2cccc(F)c2)cn2c(-c3ccc(F)c(Cl)c3)cnc12
    -2.4, -3.5, 3.3
> C[C@H]1CN([C@@H](C)CO)C(=O)c2cc(NC(=O)CCN3CCOCC3)ccc2O[C@@H]1CN(C)C(=O)Nc1ccccc1
    -0.2, 5.5, 0.5
> O=C([C@H]1[C@H](CO)[C@H]2Cn3c(cccc3=O)[C@H]2N1Cc1cc(F)ccc1F)N1CCOCC1
    -1.6, 3.2, -2.7
> CN1CCN(C(=O)[C@H]2[C@H](CO)[C@H]3Cn4c(ccc(C5=CCCC5)c4=O)[C@@H]2N3S(C)(=O)=O)CC1
    2.7, 7.3, -1.2
> C/C=C/c1ccc([C@H]2[C@@H](CO)N(CC3CCCCC3)[C@@H]2CNC(C)C)cc1
    5.4, -27.8, 22.8
> C[C@H](CO)N1C[C@H](C)[C@@H](CN(C)Cc2ccc(C(=O)Nc3ccccc3N)cc2)Oc2ccc(NC(=O)Cc3cn(C)c4ccccc34)cc2C1=O
    -5.5, -7.8, 0.0
> COc1ccc(NC(=O)Nc2cccc3c2O[C@@H](CN(C)Cc2ccncc2)[C@H](C)CN([C@@H](C)CO)C3=O)cc1
    -2.6, -3.0, -0.5
> O=C(Nc1ccc(F)cc1)N[C@@H]1CC[C@@H](CCn2cc(C3(O)CCCC3)nn2)O[C@H]1CO
    -0.6, -0.3, -3.1
> Cc1noc(C)c1NC(=O)N(C)C[C@H]1OCCCC[C@H](C)Oc2ccc(NC(=O)C3CCCCC3)cc2C(=O)N([C@@H](C)CO)C[C@H]1C
    1.2, 12.1, -1.3

(listing goes on)
SMILES | Ecoli rRNA inh | Ecoli rRNA inh OD600 | Ecoli rRNA inh RFP
CO[C@H]1CN(C)C(=O)c2ccc(NC(=O)Nc3ccc(C(F)(F)F)cc3)cc2OC[C@@H](C)NC[C@H]1C | -20.6 | -38.1 | 15.6
CC(C)NC(=O)Nc1ccc2c(c1)C(=O)N([C@H](C)CO)C[C@@H](C)[C@@H](CN(C)S(=O)(=O)c1ccccc1)OCCCC[C@@H](C)O2 | -0.8 | -4.3 | 1.8
CCCNC(=O)N(C)C[C@H]1Oc2cc(-c3cncnc3)ccc2S(=O)(=O)N([C@@H](C)CO)C[C@@H]1C | 7.5 | 5.0 | 3.1
O=C(NC[C@@H]1[C@@H](c2ccccc2)[C@@H](CO)N1Cc1ccccn1)NC1CCCC1 | 1.2 | 4.4 | -1.3
CNC[C@@H]1Oc2cc(Br)ccc2S(=O)(=O)N([C@H](C)CO)C[C@@H]1C | 5.2&9.0 | 8.1&8.0 | -3.2&-0.4
O=C(C[C@H]1C=C[C@@H](NC(=O)NC2CCCCC2)[C@@H](CO)O1)NCc1ccc(F)cc1 | -1.6 | -2.5 | -2.1
CNC[C@@H]1Oc2cc(C#CC3CCCC3)ccc2S(=O)(=O)N([C@H](C)CO)C[C@H]1C | 8.7 | 4.5 | 7.8
COCC(=O)N(C)C[C@@H]1Oc2cc(C#CC3CCCC3)ccc2S(=O)(=O)N([C@H](C)CO)C[C@@H]1C | -3.0 | -11.1 | 1.1
COC(=O)C[C@@H]1CC[C@@H]2[C@H](COC[C@H](O)CN2CCC(F)(F)F)O1 | 0.3 | 10.4 | -1.5
COC(=O)[C@]12CCCCC=C1N(CCc1ccc(OC)c(OC)c1)C(=O)[C@H](CC(=O)NCC1CCCCC1)C2 | -21.1 | -24.4 | 2.0
CC(C)NC(=O)N(C)C[C@H]1OCCCC[C@H](C)Oc2ccc(NS(=O)(=O)c3cn(C)cn3)cc2C(=O)N([C@H](C)CO)C[C@@H]1C | 5.4 | 10.7 | -1.3
CCC(=O)N1CCCCN2[C@H](CO)[C@H](c3ccc(C#CCOC)cc3)[C@@H]2C1 | 2.7 | 5.0 | -0.5
CCOC(=O)C1=CCN(S(=O)(=O)c2ccccc2Cl)C1c1ccc(C)cc1 (stereo unspecified) | -27.0 | -30.5 | -9.0
O=C(C[C@@H]1CC[C@H]2[C@@H](COC[C@@H](O)CN2C(=O)Nc2ccccc2)O1)NCc1ccccc1F | 3.1 | 7.6 | 1.3
O=C(C[C@H]1CC[C@H]2NC[C@@H](O)COC[C@@H]2O1)NCCc1ccccc1 | 1.3 | -3.7 | -0.6
O=C(C[C@@H]1CC[C@H]2[C@@H](COC[C@H](O)CN2S(=O)(=O)c2ccccc2)O1)Nc1ccccc1 | -4.5 | 3.1 | 0.5
c1ccc(OCCNc2ccn3nc(-c4ccco4)cc3n2)cc1 | -10.6 | -3.0 | 5.3
C[C@H]1CN([C@@H](C)CO)C(=O)c2cccc(NC(=O)C3CCOCC3)c2O[C@H]1CN(C)S(=O)(=O)c1cccs1 | -3.3 | -7.8 | -1.8
C[C@H](CO)N1C[C@H](C)[C@H](CN(C)Cc2ccc(Cl)c(Cl)c2)Oc2ccc(NC(=O)Nc3ccc4c(c3)OCO4)cc2C1=O | 1.4 | -10.3 | 2.3
O=C(C[C@H]1CC[C@H](NS(=O)(=O)c2ccc(F)cc2)[C@@H](CO)O1)NCCN1CCCCC1 | 0.5 | 1.6 | -1.1
C[C@H]1CN([C@@H](C)CO)C(=O)c2cccc(NS(=O)(=O)c3cccs3)c2O[C@H]1CN(C)Cc1ccc(Cl)c(Cl)c1 | -5.8 | -9.2 | 1.3
CC1(C(=O)Nc2ccc3c(c2)OCO3)CCN1Cc1ccccc1OC(F)F (stereo unspecified) | -48.2 | -66.4 | -12.9
CC(C)NC(=O)N1CC[C@H]2[C@@H]1c1cc(C#Cc3ccccc3)ccc1N(C)[C@H]2CO | -5.9 | 6.9 | -0.6
Cc1noc(C)c1NC(=O)Nc1ccc2c(c1)C(=O)N([C@@H](C)CO)C[C@@H](C)[C@H](CN(C)S(=O)(=O)c1cccs1)OCCCC[C@H](C)O2 | -1.8 | -0.3 | 1.8
COc1ccc(NC(=O)Nc2cccc3c2O[C@H](CN(C)S(=O)(=O)c2ccc(C)cc2)[C@H](C)CN([C@H](C)CO)C3=O)cc1 | -4.4 | -7.2 | 1.0
Cc1ccc(S(=O)(=O)Nc2ccc3c(c2)C(=O)N([C@@H](C)CO)C[C@H](C)[C@H](CN(C)C(=O)Nc2c(C)noc2C)OCCCC[C@H](C)O3)cc1 | 0.3 | 3.7 | 3.3
CO[C@H]1CN(C)C(=O)c2cc(NC(=O)C3CCC3)ccc2OC[C@H](C)N(Cc2ccc(F)cc2)C[C@@H]1C | 1.7 | -1.1 | 0.2
COCC#Cc1ccc([C@@H]2[C@@H](CO)N3CCCCN(Cc4ccccc4F)C[C@H]23)cc1 | 0.9 | -5.7 | -4.0
CC(=O)N1CC(=O)N2[C@H](CO)[C@@H](c3ccc(C#CC(C)C)cc3)[C@@H]2C1 | 1.3 | 3.8 | 2.8
Cn1c(NCCc2ccncc2)nc2cc(-c3cccc(C(F)(F)F)c3)sc2c1=O | 0.5 | 3.7 | 5.0
